Screening results: PubChem BioAssay, several laboratories
Mtb H37Rv: M. tuberculosis H37Rv growth inhibitors, H37Rv strain (AID 1626); hit rate 0.95% among 220,000; M. tuberculosis H37Rv growth inhibition; higher % means a stronger effect; inhibition, % at 10 µM, or IC50 in µM where a hit was titrated;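 active means confirmed in a dose series; inconclusive means inhibition above 80% but not taken into the dose series; inactive means below 80% or under 30% at every dose of the series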;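 further: bacteria incubated seven days before Alamar blue readout; 0% = bacteria only wells and 100% = bacteria with antibiotic wells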
RecA intein inh: inhibitors of M. tuberculosis RecA intein splicing; cell-free RecA intein splicing, fluorescence; inhibition, %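 (about 9 µM by stock and volumes)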; hit rate 0.75% among 290,000; AID 2221; in the data active means inhibition above about 30%; inconclusive means no clear call, values can overlap the other calls;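 further: 0% = vehicle wells and 100% = reference inhibitor control wells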
Target sequence (P9WHJ3 whole entry, looked up): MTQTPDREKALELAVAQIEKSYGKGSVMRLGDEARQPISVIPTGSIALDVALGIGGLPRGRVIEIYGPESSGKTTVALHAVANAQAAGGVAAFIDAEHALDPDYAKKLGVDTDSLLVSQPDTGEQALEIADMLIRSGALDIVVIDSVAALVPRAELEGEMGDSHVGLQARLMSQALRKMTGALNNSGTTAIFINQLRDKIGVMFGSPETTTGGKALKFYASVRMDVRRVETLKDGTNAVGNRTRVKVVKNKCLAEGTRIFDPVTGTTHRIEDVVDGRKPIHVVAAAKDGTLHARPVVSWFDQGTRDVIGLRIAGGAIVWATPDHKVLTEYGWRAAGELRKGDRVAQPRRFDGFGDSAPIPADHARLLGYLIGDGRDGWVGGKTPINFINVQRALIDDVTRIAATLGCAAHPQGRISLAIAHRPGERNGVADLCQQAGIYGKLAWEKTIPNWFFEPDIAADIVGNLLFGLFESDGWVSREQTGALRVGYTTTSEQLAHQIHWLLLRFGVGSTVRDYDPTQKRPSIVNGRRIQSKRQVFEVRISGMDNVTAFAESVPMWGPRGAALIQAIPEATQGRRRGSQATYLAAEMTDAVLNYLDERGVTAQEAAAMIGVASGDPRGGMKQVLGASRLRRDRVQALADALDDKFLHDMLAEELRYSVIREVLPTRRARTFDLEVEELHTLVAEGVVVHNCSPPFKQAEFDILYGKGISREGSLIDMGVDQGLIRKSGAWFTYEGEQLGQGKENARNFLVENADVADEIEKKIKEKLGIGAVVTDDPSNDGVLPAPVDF
YopH inh: blocks Yersinia enterocolitica YopH tyrosine phosphatase. inhibition, %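 (about 10 µM by stock and volumes)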. fluorescence Ex485/Em525. hit rate 0.16% among 140,000;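 active means inhibition of 50% or more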;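 further: controls were vehicle for no effect and minimum signal wells for full effect; inactives centre near -20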
Arbovirus anti: blocks arbovirus infection. arbovirus infection cell-based antiviral screen. inhibition, % at 10 µM. hit rate 0.37% among 200,000;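 active means inhibition from about 30%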;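 further: bluetongue infection of BSR cells; cell survival read as ATP light after 72 h; 0% = infected wells without compound and 100% = uninfected wells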
Mtb betalactam: beta-lactam sensitization of Mtb H37Rv | M. tuberculosis H37Rv growth with meropenem, percent inhibition; hits of this screen are not shown here | inhibition, % at 25 µM | hit rate 0.27% among 330,000;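 active means about 74% or more and at least 40 points above the plate without the antibiotic, then above 30% in a dose series; inconclusive means first-round hits that could not be retested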;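 further: growth measured after seven days incubation then overnight dye step; 0% = bacteria only wells and 100% = bacteria with antibiotic; twin plates without the antibiotic show which effects depend on it; some results filed as inactive read as strong as hits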
Arbovirus anti repeat: further read-out of Arbovirus anti, marked with its call; inhibition, %; measured here: 10K subset replicate screen; many hits read low in the repeat;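 first of two repeat runs on a subset; 0% = infected and 100% = uninfected wells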
* = called active by the depositor; ? = inconclusive; · = no result given.

SMILES	Mtb H37Rv	RecA intein inh	YopH inh	Arbovirus anti	Mtb betalactam	others
O=C(CSc1ncnc2c1oc1ccccc12)NC1CCCCC1	3%	-1.6	-44	-7	3	Arbovirus anti repeat=-6
CC(/C=N/n1cnnc1)=C\c1ccco1	2%	3.0	-32	-5	13
O=C(CCl)Nc1ccccc1C(=O)Nc1ccc2c(c1)OCO2	·	38*	·	·	99
CCN(CC)S(=O)(=O)c1cccc(NC(=O)c2ccc(-n3nc(C)cc3C)cc2)c1	11%	5.4	-19	-12	19
Cc1cccc(-c2nc3c(c(SCC(=O)N4CCOCC4)n2)Cc2c(CO)cnc(C)c2O3)c1	·	-3.7	·	·	0
Cn1c(SCc2ccccc2[N+](=O)[O-])nnc1-c1cccnc1	-1%	3.8	·	12	1
COc1ccc(-n2nnnc2S(=O)(=O)CC(=O)N2CCCCC2)cc1	?	·	-2	-27	98	Arbovirus anti repeat=-29
O=C(NCCCn1ccnc1)/C(=C\c1cccs1)NC(=O)c1ccco1	-8%	-1.2	-18	-3	-8
CN(C)/C=C(\C(=O)c1ccc(Cl)cc1)c1nnnn1-c1ccc(Cl)cc1	3%	2.4	5	-5	1
CCOc1cc(/C=C2\SC(N)=NC2=O)ccc1O	·	-3.9	·	·	4
CN(C(=O)CCl)C1CCCc2ccccc21 (configuration not stated)	12%	·	·	-11	·
C/C(=N/OCC(=O)NCCCCCCNC(=O)CO/N=C(/C)c1cccs1)c1cccs1	12%	5.9	-21	3	5
O=C(Nc1ccon1)Nc1ccc(Cl)cc1Cl	·	-1.4	·	·	-6
CCOC(=O)CCc1c(C)c2ccc(OC(C)C(=O)OCC)c(C)c2oc1=O (configuration not stated)	?	·	-28	1	99
O=C(CSC1=NCCS1)NC1CCCCC1	-10%	·	24	2	8
Cc1ccc(C(=O)Nc2ncc(C)s2)s1	·	0.6	·	·	26
CCc1c(C#N)c(=O)[nH]c(=O)n1-c1ccccc1	·	-2.9	·	·	8
COc1cc(C(=O)NCCCc2nc3ccccc3n2Cc2cc(C)ccc2C)cc(OC)c1OC	0%	5.5	-21	-3	-4
CCN(CC)CC(O)Cn1c(-c2cccc(Cl)c2)nc2cc(C)c(C)cc21 (configuration not stated)	-8%	-0.8	·	·	-7
CCc1nccn1C(=O)c1cnn2c(C(F)F)cc(-c3ccc(C)cc3)nc12	4%	-0.1	-45	-4	8
CCN1CCCC1CNC(=O)c1ccc(Sc2ccc(F)cc2)c([N+](=O)[O-])c1 (configuration not stated)	-11%	0.4	·	5	15
O=c1nc2c(-c3ccccc3F)n[nH]n2c2ccccc12	-16%	-0.2	-41	-4	12
CCCNC(=O)c1cccc(C(F)(F)F)c1	0%	-1.1	-5	-9	4
CCOC(=O)Cc1cnc(NC(=O)CSc2nc(C)c(CC)c(=O)[nH]2)s1	3%	1.3	·	0	-2
CC1CC(OCC(O)CN2CCN(Cc3ccccc3)CC2)CC(C)(C)C1 (configuration not stated)	-13%	-0.1	-19	7	-10
Cc1ccc(C)c(C(C)NC(=O)C2CCCO2)c1 (configuration not stated)	·	-2.2	·	·	-3
CC(C)(C)CN1CCNC[C@H]1Cc1ccc(O)cc1	·	-0.4	·	·	-10
Nc1c(Cl)cc(Cl)cc1C(=O)OCC(=O)N1CCCC1=O	·	-0.1	·	·	-3
CC(=O)c1ccc(OCC(=O)N2CCCC(N3CCN(c4ccccc4C)CC3)C2)cc1 (configuration not stated)	·	0.7	·	·	1
O=C(Nc1ncc2c(n1)-c1ccccc1CC2)c1cccc(Cl)c1	·	5.0	-35	-14	1
CC1CCCC(C)N1C(=O)COC(=O)Cn1cnc2c1c(=O)n(C)c(=O)n2C (configuration not stated)	·	0.3	·	·	2
C=CCSc1nnc(-c2cnn(-c3ccccc3)c2-n2cccc2)n1C	-3%	0.6	-7	4	-6
COc1ccccc1C(=O)Nc1c2c(nn1-c1cccc(C)c1C)CS(=O)C2 (configuration not stated)	·	-3.6	-34	0	3
COc1ccc(C2CC(=O)Oc3ccc(C(C)(C)C)cc32)cc1 (configuration not stated)	·	13	·	·	-7
CCOc1nc(-c2ccc(Cl)cc2)nc2ccccc12	-1%	-3.6	-27	-7	5
C/C(=N\Nc1ccc2nncn2n1)c1ccc(Cl)s1	·	1.6	·	·	-1
COc1cccc(OCC(O)CN2CCN(C)CC2)c1 (configuration not stated)	·	-0.3	·	·	-3
COc1ccc(S(=O)(=O)Nc2c3ccccc3nc(=O)n2-c2ccccc2)cc1	-1%	-5.8	-9	5	-3
CSc1cccc(NC(=O)C(C)Sc2ccc(C)cc2)c1 (configuration not stated)	-3%	3.5	5	0	27
Cc1ccccc1OCC(=O)NC(C)c1ccccc1 (configuration not stated)	·	1.3	·	·	6
O=C(CCC1CCCCC1)Nc1cccc(C(=O)Nc2ccc(C(=O)O)cc2)c1	·	2.3	·	·	-5
CC(=O)NCCC1CCN(c2nc3nonc3nc2N(C)Cc2ccccc2)CC1	-1%	-1.6	·	-7	-1
O=C(COc1coc(CN2CCN(c3ccc(F)cc3)CC2)cc1=O)NC1CCCC1	·	-1.3	·	·	-4
CC(=O)Nc1nc(-c2ccc3c(c2)OCO3)cs1	-4%	-2.9	·	·	-6
S=C(NCc1ccccn1)Nc1ccc(Br)cc1Cl	-3%	-6.2	·	-8	-4
CCS(=O)(=O)N1CCN=C1SCc1ccccc1	·	-2.6	·	·	-2
COc1cccc(-c2c(C(=O)N/N=C/c3ccco3)nnn2-c2nonc2N)c1	·	0.1	·	·	2
Cc1ccc(OCCNc2ccc(C(F)(F)F)cc2[N+](=O)[O-])cc1	5%	-2.3	-17	1	2
CCOc1ccccc1NC(=O)CCn1ccnc1	·	-0.7	·	·	6
N=c1c(C(=O)NC2CCCCC2)cc2c(=O)n3ccccc3nc2n1Cc1ccco1	·	-47	·	·	3
COc1cccc(NC(=S)N2CCN(S(C)(=O)=O)CC2)c1	·	-1.9	·	·	-2
COc1nccc(C(F)(F)F)c1C(=O)Nc1ccc(Cl)cc1	-10%	1.0	·	·	-9
COc1ccc(OCc2n(CC(=O)OC3CC(C)CCC3C(C)C)c3ccccc3[n+]2C)cc1 (configuration not stated)	3.3µM*	15	·	·	97
O=S1(=O)N=C(Oc2ccccc2)c2ccccc21	0%	2.0	-34	1	1
CC(NC(=O)/C(C#N)=C/c1cn(-c2ccccc2)nc1-c1ccc(F)cc1)c1ccccc1 (configuration not stated)	8%	-3.5	3	-4	4
CN(C)c1ccc(P(=O)(OCc2ccccc2)C(O)c2ccncc2)cc1 (configuration not stated)	·	-0.4	-10	2	2
Cc1[nH]c(=O)[nH]c(=O)c1CSc1nnc([C@@H](NC(=O)OC(C)(C)C)C(C)C)o1	-5%	-3.3	-33	6	-4
CCCC(=O)Nc1c2c(nc3ccccc13)N(c1ccccc1)CC2	-2%	-8.1	·	7	39
Cc1ccc(/C=C2/C(=O)NC(=O)N(CCc3ccc(F)cc3)C2=O)o1	-18%	4.6	-42	-4	-2
O=C(Nc1ccccc1O)c1cccc(S(=O)(=O)N2CCOCC2)c1	-7%	-2.1	·	1	-3
Remaining list, next part
SMILES	Mtb H37Rv	RecA intein inh	YopH inh	Arbovirus anti	Mtb betalactam	others
CN1CCC(OC(=O)c2cccc(Br)c2)CC1	-9%	-1.3	-19	-8	8
O=C(NC1CCCC1)C(=O)N(Cc1cccnc1)C(C(=O)NC1CCCC1)c1ccco1 (configuration not stated)	3%	0.2	·	4	-7
O=C(NCCNC(=O)c1cnccn1)c1cccc(Cl)c1	·	4.5	·	·	3
O=C(Cn1nnc2ccccc2c1=O)N[C@@H](Cc1ccccc1)C(=O)O	-4%	-4.5	·	·	-5
COc1cccc(N/C(SCc2cccc([N+](=O)[O-])c2)=C(/C#N)C(N)=O)c1	3%	·	·	-20	-3
COc1cc(/C=N\NC(=O)c2cccnc2)ccc1OC(=O)c1ccccc1Cl	·	-2.9	·	·	3
Cc1ccc(NC(c2ccccc2)c2nc3ccccc3[nH]c2=O)cc1 (configuration not stated)	·	-0.4	·	·	-2
COc1ccc(CCNC(=O)C23CCC(C)(C(=O)C2=O)C3(C)C)cc1OC (configuration not stated)	0%	4.6	·	3	-7
COc1ccc(/C(O)=C2/C(=O)C(=O)N(CCCN3CCOCC3)C2c2ccc(N(C)C)cc2)cc1 (configuration not stated)	·	-6.4	·	·	1
COc1ccc(C(=O)C[n+]2cc(Br)cc3ccccc32)cc1[N+](=O)[O-]	·	-0.1	·	·	6
O=C(CCNC(=O)c1ccc([N+](=O)[O-])cc1)Nc1ccccc1N1CCOCC1	8%	-1.3	·	12	-8
CCCNC(=O)CC(NS(=O)(=O)c1ccc(NC(C)=O)cc1)C(C)C (configuration not stated)	2%	-0.6	·	4	11
Cc1ccc(-n2nc(C)c3c2OC(N)=C(C#N)C3c2cccs2)cc1 (configuration not stated)	·	65*	-13	1	2	Arbovirus anti repeat=1
Cn1c(=O)[nH]c(=O)c2c1nc(SCC(O)CO)n2CCCc1ccccc1 (configuration not stated)	·	-0.3	·	·	-6
O=c1oc(-c2cccs2)nc2ccc(Cl)cc12	-2%	16	·	12	16
CC(=O)CCc1ccc(OCCCCn2cncn2)cc1	5%	-3.3	8	1	-7
Cc1nc(NC(=O)C2CCCCC2)sc1C	-3%	0.7	4	-4	2
Cn1cc(/C=N/n2cnc3sc4c(c3c2=O)CCCC4)c2ccccc21	-3%	1.2	4	-8	3
O=C1OC(c2ccc(Cl)cc2)=N/C1=C\N1CC2CC(C1)c1cccc(=O)n1C2 (configuration not stated)	0%	-8.6	·	·	-4
Clc1cccc(CN2CCCCCC2)c1	·	-0.2	·	·	-3
COc1ccccc1N1CCN(/N=C/c2cccc(OC)c2O)CC1	-5%	0.2	·	8	0
CC(C)c1ccccc1-n1cc[nH]c1=S	4%	-2.5	·	7	-2
Cc1cccc(NC(=O)c2cc3c([nH]c4ccccc43)c(C)n2)c1C	-2%	-0.8	-25	-3	5
Cc1cc(C)cc(OCC(O)CN2CCC(CN3C(=O)c4cccc5cccc(c45)C3=O)CC2)c1 (configuration not stated)	·	-2.5	·	·	100
Cc1cc(C(=O)Nc2c(C)nn(Cc3ccc(F)cc3)c2C)on1	3%	1.6	-5	0	-4
Cc1oc2c(c(C)cc3oc(=O)c(CC(=O)NCCCO)c(C)c32)c1C	·	-3.8	·	·	-1
CCCCCOC(=O)C1C2C=CC3(CN(c4ccccc4C)C(=O)C13)O2 (configuration not stated)	-7%	2.6	-24	3	7
NS(=O)(=O)c1ccc(CCNC(=O)C(=O)c2cn(CC(=O)N3CCCC3)c3ccccc23)cc1	·	-2.4	·	·	-13

Random excerpt: 3 entries already listed, in no set order.
SMILES	Mtb H37Rv	RecA intein inh	YopH inh	Arbovirus anti	Mtb betalactam	others
CC(C)c1ccccc1-n1cc[nH]c1=S	4%	-2.5	·	7	-2
CCCCCOC(=O)C1C2C=CC3(CN(c4ccccc4C)C(=O)C13)O2 (configuration not stated)	-7%	2.6	-24	3	7
Cc1oc2c(c(C)cc3oc(=O)c(CC(=O)NCCCO)c(C)c32)c1C	·	-3.8	·	·	-1

Some of these compounds in order of number of heavy atoms, rising.
SMILES	Mtb H37Rv	RecA intein inh	YopH inh	Arbovirus anti	Mtb betalactam	others
CC(C)c1ccccc1-n1cc[nH]c1=S	4%	-2.5	·	7	-2
Cc1cc(C(=O)Nc2c(C)nn(Cc3ccc(F)cc3)c2C)on1	3%	1.6	-5	0	-4
COc1ccccc1N1CCN(/N=C/c2cccc(OC)c2O)CC1	-5%	0.2	·	8	0
CCCCCOC(=O)C1C2C=CC3(CN(c4ccccc4C)C(=O)C13)O2 (configuration not stated)	-7%	2.6	-24	3	7
NS(=O)(=O)c1ccc(CCNC(=O)C(=O)c2cn(CC(=O)N3CCCC3)c3ccccc23)cc1	·	-2.4	·	·	-13
Cc1cc(C)cc(OCC(O)CN2CCC(CN3C(=O)c4cccc5cccc(c45)C3=O)CC2)c1 (configuration not stated)	·	-2.5	·	·	100

An excerpt; rates above refer to the full screens.
